BJeLR viability: MLPCN primary cell-based screen for lethality selective to Ras in HRASV12 cells; BJeLR (HRASV12) viability, CellTiter-Glo ATP luminescence, 48 h; reference of the scale not given here; inhibition, % (no concentration beside the values); actives 0.17% (n = 300,000);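 active = replicate mean above 50%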;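 note: 50 nL library stock added to about 25 µL; numbers are from one replicate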
Mtb hypoxia inh: PubChem AID 1159583 | M. tuberculosis hypoxia-regulated fluorescent reporter, fluorescence | fluorescence inhibition, % (test concentration not listed) | actives 0.1% (n = 300,000);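 active = 35 to 45% if threefold the growth effect, above 45% if 1.5-fold the growth effect; inactive = the rest, general growth blockers included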;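 note: wells of about 50 µL received 100 nL stock; 0% = vehicle wells and 100% = reference inhibitor wells; whole bacteria with a GFP reporter of the hypoxia response; strong numbers were not always called active; many hits fall short of the cut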
RN4220 kill: growth inhibition of S. aureus RN4220, primary screen, OD600; 16 h; inhibition, % (no concentration beside the values); actives 0.33% (n = 330,000); AID 1259311, 2017;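 active = z-score of -3 or lower and OD600 up to 0.18 on both plates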;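 note: plate controls were untreated cells for no effect and reference antibiotic for full effect; stock transfer was 100 nL into about 80 µL; one replicate is shown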
PrP 5UTR inh: inhibition of PrP 5' UTR reporter expression | cell-based PrP 5' UTR mRNA reporter, plate reader | inhibition, % (test concentration not listed) | actives 0.35% (n = 340,000) | AID 488862, 2010;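 active = every replicate at 50% or more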;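 note: 0 = median of the neutral control wells; tested in H4 reporter cells; numbers are from one replicate; inactives centre near -14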
Autofluor counter: flagged as autofluorescent in microsphere protease counterscreen. actives 3.1% (n = 360,000). compound autofluorescence counterscreen, microsphere flow cytometry; hits give high values. AID 624483. fluorescence intensity (concentration not given with the values);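 active = at least 3 SD above the mean of all compounds, about 16000 in these data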;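 note: 100 nL of 1 mM stock went into each well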
Sa ugtP lethal: growth inhibition of ugtP-null S. aureus, primary screen, RN4220 ugtP deletion, OD600; 16 h; some inactives read as strong as hits; growth inhibition, % (no concentration beside the values); actives 0.54% (n = 330,000);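 active = z-score under -3 and OD600 up to 0.15 on both plates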;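 note: plate controls were untreated wells for no effect and antibiotic for full effect; wells of about 80 µL received 100 nL stock; the first replicate is given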
Mtb hypoxia inh growth: also measured in Mtb hypoxia inh; calls as there; growth inhibition, %; measured here: M. tuberculosis growth (absorbance);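 0% = vehicle and 100% = reference antibiotic; read after six days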
An asterisk follows results filed as active; x = not tested or not shown. Compounds were not picked by outcome; 4% or so of the library scored in one or more.

Compound	BJeLR viability	Mtb hypoxia inh	Mtb hypoxia inh growth	RN4220 kill	PrP 5UTR inh	Autofluor counter	Sa ugtP lethal
O=C(c1ccc(NC2=NC3CS(=O)(=O)CC3S2)cc1)N1CCN(c2ccccc2)CC1 (stereo not drawn)	-6	-5	3	10	-27	6559	1
CC(C)(C)/C=N/NC(=O)C1CC1	3	x	x	x	-14	4411	x
Cc1ccc(S(=O)(=O)ON2C(=O)c3ccccc3C2=O)c(C)c1	x	3	3	4.5	6	9145	1
c1ccc2c(NCCCN3CCOCC3)c3ccccc3nc2c1	x	-8	6	1.7	x	x	-12
Cc1cc(C)n(-c2nc(-c3cccc(Cl)c3)cs2)n1	7	x	x	-0.1	-63	4026	88*
CCOc1ccc(N(CC(=O)NC2CCCC2)C(=O)Cn2nnc(-c3ccc(C)o3)n2)cc1	-3	-12	-8	-3.6	-12	4187	-3
COCCn1cnnc1SCC(=O)Nc1cccc(S(=O)(=O)N2CCCCC2)c1	x	-1	4	0.3	-29	9080	-2
Cc1ccc(S(=O)(=O)N2[C@@H](c3ccccc3F)C(C(=O)O)=CC[C@H]2c2ccc(Cl)c(Cl)c2)cc1	x	6	3	4.8	-17	3998	77
COc1cc(C=NN2C(=O)CSC2=S)cc(Br)c1O	x	23	19	-2.4	x	x	10
Cn1cc(C(=O)c2ccc(F)cc2)cc1-c1nc2ccccc2n1C	-2	7	8	1.9	-15	4013	-2
Cc1ccc(/C=N/NC(=O)c2cccnc2)s1	-9	x	x	x	-19	3709	x
Cc1cnc(NC(=O)Cc2ccccc2F)s1	-1	-13	2	3.0	-9	5764	3
COc1cc(OC)c(NC(=O)C2CCN(S(=O)(=O)c3ccc4c(c3)CC(C)N4C(C)=O)CC2)cc1Cl (stereo not drawn)	9	-6	-6	-6.7	-9	4451	-3
Cc1cc2nnc(SCC(=O)NCC(c3ccccc3)N(C)C)n2c2ccccc12 (stereo not drawn)	-2	12	8	0.7	-17	6080	5
CCCCCCn1c(NCC)nc2c1c(=O)n(C)c(=O)n2C	3	10	2	2.5	-15	3325	-1
O=C(NCC(=O)N(Cc1ccco1)C(C(=O)NC1CCCC1)c1cccnc1)c1ccco1 (stereo not drawn)	6	1	6	2.7	-13	4147	3
CCCN(CC1CC1)C(=S)Nc1ccc(Oc2ccccc2)cc1	1	1	6	-5.6	-7	2074	-8
Cc1noc(C)c1C(=O)N(CC(=O)Nc1ccccc1Br)Cc1ccco1	x	9	1	7.4	-16	4317	6
Cc1cc(C)nc(SCCc2ccncc2)n1	1	-6	5	-5.9	-7	3533	-7
COc1cc(C(=O)N(Cc2ccc(C)o2)C2CCS(=O)(=O)C2)cc(OC)c1OC (stereo not drawn)	8	6	7	3.2	-8	4718	2
COc1ccc(C=NNC(=O)NN=Cc2ccc(OC)c(OC)c2)cc1OC	x	14	14	0.3	-31	4117	5
CCOC(=O)c1sc(=S)n(-c2ccccc2)c1SC	-1	12	6	6.8	17	21506*	3
Cc1cc(C)nc(N(C#N)Cc2ccccc2Cl)n1	-2	6	-1	6.0	-8	5466	14
CC(=O)Nc1ccc(S(=O)(=O)N2CCC(C(=O)O)CC2)cc1	0	-5	0	-4.0	-18	4293	-4
CC(C)=CCC[C@](C)(OC1OC(COC2OCC(O)C(O)C2O)C(O)C(O)C1O)C1CC[C@]2(C)C1C(O)CC1[C@@]3(C)CCC(O[C@@H]4O[C@H](CO)C(O)C(O)C4O[C@@H]4OC(CO)C(O)C(O)C4O)C(C)(C)C3CC[C@]12C (stereo partly drawn)	x	4	10	-12	-7	3487	-2
COc1ccc(CNC(=O)/C=C/c2ccc(OCCCF)cc2)cc1OC	7	x	x	-3.1	-6	2604	5
O=C(Cn1c2ccc(F)cc2c2nc3n(c(=O)c21)CCS3)NC1CCCC1	2	3	1	-2.5	-14	3936	10
NC(=O)CC(NC(=O)Cc1cccc2ccccc12)c1ccc(N2CCC(Cc3ccccc3)CC2)c([N+](=O)[O-])c1 (stereo not drawn)	-12	9	7	6.1	-23	4178	-6
c1cc(-n2cnnn2)ccc1NC1=NCCC1	-10	2	8	0.9	-3	9029	-9
CSc1nc(-c2ccccc2F)c(C#N)c(=O)n1C	-7	-1	13	5.2	19	4536	7
Cc1ccc(S(=O)(=O)N2CCN(C)CC2)c2nsnc12	-2	-1	7	1.1	-7	5190	5
O=S(=O)(CCN1CCN(C(c2ccccc2)c2ccccc2)CC1)C(F)(F)F	-2	20	6	9.6	-5	10523	6
Cc1c(CCO)c(=O)n(C)n1C(=O)c1ccc(Cl)cc1	-3	-9	8	-2.8	-19	9525	-7
Cc1ccc(N2C(=O)c3n[nH]c(C)c3C2c2ccco2)cc1 (stereo not drawn)	-5	-6	-9	3.4	-10	22119*	-4
COc1ccc(/C(C)=N/NC(=O)Cn2nc([N+](=O)[O-])cc2C)cc1	-1	x	x	x	-12	3761	x
COc1ccc(NC(=O)N(CCN2CCCC2)Cc2cc3cc(OC)c(OC)cc3[nH]c2=O)cc1	-6	6	10	-6.6	-16	7510	0
O=C(CC1C(=O)NCCN1Cc1cccc(C(F)(F)F)c1)NCCCOc1cccnc1 (stereo not drawn)	-6	7	12	2.4	-13	5818	5
CCNCC(O)COCC(O)CNCC (stereo not drawn)	-1	6	7	1.6	-17	3712	0
COc1ccccc1C(=O)Oc1ccccc1C(=O)Nc1ccccc1	23	2	1	6.4	-52	5038	20
O=c1[nH]c2cc(Br)cnc2nc1/C=C(\O)c1ccc(F)cc1	0	x	x	x	9	10459	x
O=C(/C=C/c1cccc([N+](=O)[O-])c1)N1CCOCC1	-9	1	11	3.0	-24	2837	4
O=C(NC(=S)NCc1ccccc1)c1cccc(Cl)c1	0	11	2	-7.1	-9	x	36
Cc1nc(C#N)c(NCc2ccc3c(c2)OCO3)o1	1	x	x	1.7	-28	2489	4
O=C(NCCOc1ccccc1F)C1CCC(=O)N(CC2CCCCC2)C1 (stereo not drawn)	10	9	0	5.5	15	4523	12
Cc1cc(C(=O)N/N=C/c2ccc[nH]2)no1	-15	x	x	x	-38	7231	x
Cc1ccc(S(=O)(=O)N2CCN(C(=O)COC(=O)COc3ccccc3C(C)C)CC2)c(C)c1	x	-8	4	3.2	-11	3852	-1
CCN1C(=O)CC(Sc2ccccc2C(=O)O)C1=O (stereo not drawn)	13	2	1	2.8	-9	10495	5
N[C@@H](Cc1ccc(O)cc1)c1nnc([C@H](CO)NC(=O)C2CCNCC2)o1	-8	x	x	x	-24	3671	x

Reprinted from the part before: four compounds, then new ones.
Compound	BJeLR viability	Mtb hypoxia inh	Mtb hypoxia inh growth	RN4220 kill	PrP 5UTR inh	Autofluor counter	Sa ugtP lethal
Cc1cc(C(=O)N/N=C/c2ccc[nH]2)no1	-15	x	x	x	-38	7231	x
Cc1ccc(S(=O)(=O)N2CCN(C(=O)COC(=O)COc3ccccc3C(C)C)CC2)c(C)c1	x	-8	4	3.2	-11	3852	-1
CCN1C(=O)CC(Sc2ccccc2C(=O)O)C1=O (stereo not drawn)	13	2	1	2.8	-9	10495	5
N[C@@H](Cc1ccc(O)cc1)c1nnc([C@H](CO)NC(=O)C2CCNCC2)o1	-8	x	x	x	-24	3671	x
COc1ccc(CN2CCc3c([nH]c4ccccc34)C2)cc1Br	0	6	3	-0.7	-10	8951	-4
COC(=O)c1ccc(NC(=O)Nc2ccc(OC)cc2)cc1	4	7	3	-0.9	-33	4423	9
O=C(Nc1ccc2ncccc2c1)c1ccccc1Cl	-5	7	-6	3.4	-12	2011	7
Brc1ccc2[nH]c3c(N4CCc5ccccc5C4)ncnc3c2c1	2	-4	9	72	x	x	97*
COC(=O)[C@]1(C)CCC[C@@]2(C)C3CC[C@@]4(C)C[C@]3(CCC21)CC4=NO (stereo partly drawn)	x	9	6	12	-4	3257	23
O=C(Cc1ccc(Cl)cc1)Nc1ccc(S(=O)(=O)N2CCOCC2)cc1	-4	9	4	5.3	-4	5111	6
CCCN1CCC(=O)N(C(COc2ccccc2)c2ccccc2)CC1 (stereo not drawn)	x	17	21	2.8	x	x	1
CCc1ccccc1NS(=O)(=O)c1ccc(OC)c2ncccc12	-2	-20	-2	1.7	3	6394	-6
COC(=O)COc1ccc2cccc(-n3cnnn3)c2c1	13	1	1	2.6	-20	4771	1
CCOc1ccc(C=NNC(=O)C2CCCC2)c(OCC)c1	x	8	5	2.0	x	x	1
O=[N+]([O-])c1ccc(CNc2ccc(Cl)cc2)s1	-7	16	1	9.7	-16	3784	1
COc1ccccc1NC(=O)CCCC(=O)OCC(=O)c1ccc(F)cc1	-7	6	1	3.1	-45	6169	3
CCCn1nnc(NC(=O)/C=C/c2ccccc2)n1	-3	5	9	1.8	-14	4155	8
Cc1cc(C)c(NC(=O)C(=O)NCc2ccco2)c(C)c1	9	8	-2	4.4	-12	4962	1
Nc1nc(SCC(=O)Nc2cccc([N+](=O)[O-])c2)n[nH]1	x	14	11	3.9	-6	4231	6
O=C(CCc1nnc(-c2ccc3c(c2)OCO3)o1)NC(c1cccnc1)C(F)(F)F (stereo not drawn)	x	7	5	5.8	-16	4240	-2
O=C(CN1CCN(C(c2ccccc2)c2ccccc2)CC1)Nc1ccc(N2CCOCC2)cc1	x	-3	9	-0.5	-18	4141	5
CCCN(CCC)C(=O)c1cc2c(=O)[nH]c3ccc(C)cc3c2s1	-2	17	5	6.7	-11	4075	-11
Cn1nc(-c2ccccc2)c(C=NO)c1Cl	x	8	3	3.1	x	x	5
CC(Oc1ccc2c(c1)oc(=O)c1ccccc12)C(=O)NCCN1CCOCC1 (stereo not drawn)	-3	16	8	2.1	-3	5664	-1
CCC1(C)Cc2ccccc2-c2nc(NCCO)n(-c3ccccc3)c(=O)c21 (stereo not drawn)	2	-6	3	6.2	-21	16333*	16
Cc1sc2nc(-c3cccnc3)nc(Cl)c2c1-c1ccccc1	-9	4	4	-7.8	-27	10227	26
Cc1ccccc1C(=O)NN=C1SCC(=O)N1Cc1ccco1	x	4	3	-0.7	x	x	3
COc1ccc2nc(NC(=O)CSc3nnc4n3C(C)(C)Cc3ccccc3-4)sc2c1	4	5	2	19	-28	16715*	3
O=C(COc1ccccc1)OCC(=O)c1c[nH]c2ccccc12	x	12	0	7.9	-5	2839	9
CCOC(=O)C1=C(CSc2nccn2C)NC(=O)NC1c1ccc(OC)cc1 (stereo not drawn)	-8	4	4	3.1	-25	24264*	0
COc1ccccc1-c1cc(C(=O)N/N=C/c2sccc2C)c2ccccc2n1	-7	x	x	x	-21	4127	x

Source: PubChem BioAssay
